RN4220 kill – kills Staphylococcus aureus RN4220; inhibition, % (no concentration beside the values); 0.33% of 330,000 active; S. aureus RN4220 growth, OD600, 16 h;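 active = z-score of -3 or lower and OD600 up to 0.18 on both plates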;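 note: plate controls were untreated cells for no effect and reference antibiotic for full effect; stock transfer was 100 nL into about 80 µL; one replicate is shown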
BJeLR viability – kills HRASV12-expressing BJeLR cells; 0.17% of 300,000 active; BJeLR (HRASV12) viability, CellTiter-Glo ATP luminescence, 48 h; reference of the scale not given here; inhibition, % (concentration not given with the values);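 active = replicate mean above 50%; inconclusive = above 50% but judged a plate artefact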;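 note: 50 nL library stock added to about 25 µL; numbers are from one replicate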
PrP UTR inh – suppresses PrP 5' UTR mRNA reporter expression. cell-based PrP 5' UTR mRNA reporter, plate reader. inhibition, % (test concentration not listed). 0.35% of 340,000 active;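 active = every replicate at 50% or more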;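 note: 0 = median of the neutral control wells; tested in H4 reporter cells; numbers are from one replicate; inactives centre near -14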
Mtb hypoxia inh – inhibitors of hypoxia-regulated fluorescent reporter in Mycobacterium tuberculosis | M. tuberculosis hypoxia-regulated fluorescent reporter, fluorescence | AID 1159583 | fluorescence inhibition, % (test concentration not listed) | 0.1% of 300,000 active;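 active = 35 to 45% if threefold the growth effect, above 45% if 1.5-fold the growth effect; inactive = the rest, general growth blockers included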;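 note: wells of about 50 µL received 100 nL stock; 0% = vehicle wells and 100% = reference inhibitor wells; whole bacteria with a GFP reporter of the hypoxia response; strong numbers were not always called active; many hits fall short of the cut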
Sa ugtP lethal – compounds lethal to S. aureus RN4220 ugtP deletion mutant | 0.54% of 330,000 active | OD600 growth, 16 h; some inactives read as strong as hits | growth inhibition, % (no concentration beside the values) | AID 1259309;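 active = z-score under -3 and OD600 up to 0.15 on both plates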;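 note: plate controls were untreated wells for no effect and antibiotic for full effect; wells of about 80 µL received 100 nL stock; the first replicate is given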
Autofluor counter – counter-screen for toxin protease inhibitors: compound fluorescence. compound autofluorescence counterscreen, microsphere flow cytometry; active compounds read high. fluorescence intensity (concentration not given with the values). 3.1% of 360,000 active. AID 624483;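 active = at least 3 SD above the mean of all compounds, about 16000 in these data; inconclusive = too few beads counted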;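 note: 100 nL of 1 mM stock went into each well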
Mtb hypoxia inh growth – recorded beside Mtb hypoxia inh, whose call it bears; growth inhibition, %; measured here: M. tuberculosis growth (absorbance);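 0% = vehicle and 100% = reference antibiotic; read after six days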
An asterisk follows results filed as active; ? = inconclusive; / = no result given; & = joins results of further samples. Rows are unselected, and some 3.9% of all compounds hit somewhere here.

SMILES	RN4220 kill	BJeLR viability	PrP UTR inh	Mtb hypoxia inh	Mtb hypoxia inh growth	Sa ugtP lethal	Autofluor counter
CCN(CCS(=O)(=O)c1ccc(Cl)cc1)Cc1nc2ccccc2c(=O)[nH]1	7.1	/	-13	14	-1	-5	4110
O=C(NC(Cc1c[nH]c2ccccc12)C(=O)Nc1ccc(F)cc1)c1cccs1 (stereo unspecified)	-3.4	24	-20	4	4	-4	2041
CCOC(=O)CCCNC(=O)CN1C(=O)NC(CCc2ccccc2)C1=O (stereo unspecified)	0.4	6	2	-1	0	-2	11269
CCOC(=O)N1CCN(CCC(=O)Nc2ccc(Br)cc2)CC1	2.3	-11	-23	10	5	5	4304
CCc1ccc(C(=O)COC(=O)C(Cc2ccccc2)NC(=O)C2CCC(C)CC2)cc1 (stereo unspecified)	4.0	-3	-4	2	1	6	4219
CC(=O)c1cccc(NC(=O)c2sc3nc4n(c(=O)c3c2C)CCCC4)c1	3.7	-1	-26	19	7	-6	5493
CCOc1cc(NC(=O)c2cccs2)c(OCC)cc1NC(=O)c1ccco1	13	-3	-8	2	-2	-18	3110
Cc1cccc(C)c1NC(=O)CN(C)C(=O)[C@H](C)NC(=O)c1ccco1	5.4	/	-20	-4	-8	5	3049
O=[N+]([O-])c1cc(F)c2cccnc2c1O	30	0	-7	12	4	23	3492
COc1ccc(OC)c(NC(=O)CC2C(=O)NCCN2C(=O)c2ccccc2)c1 (stereo unspecified)	4.5	-14	-13	9	10	1	3679
CN(CC(=O)NCC1CCCCC1)CC(=O)Nc1ccccc1Br	3.5	/	-6	5	-3	11	4572
C[C@H](NC(=O)Cc1ccccc1)C(=O)N1CCC2(CC1)NCCc1[nH]cnc12	5.5	-12	-12	0	4	14	4614
O=C(Nc1ccccc1N1CCN(C(=O)c2ccccc2)CC1)c1ccc(Cl)cc1	15	4	-17	9	9	5	4562
CSCCC(NC(=O)c1cc(C)oc1C)C(=O)O (stereo unspecified)	2.5	3	-31	18	11	4	9303
COc1cccc(Cn2c(=O)oc3ccccc32)c1	3.2	20	-5	0	-1	1	3822
Cc1ccc(/C=C/C(=O)Nc2nnc(C)s2)o1	1.0	0	-12	5	4	2	2369
CCc1ccc2oc(C(=O)N3CCN(C)CC3)cc(=O)c2c1	1.5	-3	-3	19	5	2	3703
Cn1c(/C(C#N)=C/c2cccc(O)c2)nc2ccccc21	4.7	1	-40	1	11	4	2731
O=C(c1cccc(N2C(=O)C3CC=CCC3C2=O)c1)N1CCCCCC1 (stereo unspecified)	5.7	4	-28	3	-3	8	13094
COc1ccc(OC)c(-c2nnc(NC(=O)C(C)Sc3nncn3C)s2)c1 (stereo unspecified)	1.1	-3	-5	-2	0	-6	5229
CC(C)(C)OC(=O)COc1ccc(C=NNC(=O)CN2CCCCC2)cc1	-0.5	/	/	-7	7	4	/
CCc1nnc(NC(=O)c2cc(-c3ccc(C)o3)nc3ccccc23)s1	6.8	/	3	1	-4	-1	2810
CCc1cc2ccccc2nc1SCC(=O)NC1CCCC1	-4.1	-10	-12	5	-1	6	5811
CCOC(=O)c1cc(C)sc1NC(=S)Nc1ccccc1	3.3	3	-7	/	/	11	3057
CC(=O)N1CCCc2cc(S(=O)(=O)N3CCCC(C)C3)ccc21 (stereo unspecified)	7.3	9	-7	8	3	-3	5694
CCOC(=O)Cn1c(=O)oc2cc(S(=O)(=O)N(C)Cc3ccccc3)ccc21	3.2	4	-10	11	8	4	4407
COc1cc([N+](=O)[O-])ccc1-c1ccc(C=Nn2cnnc2)o1	5.5	/	/	7	1	14	/
Cc1ccc(NC(=O)c2sccc2C)cc1S(=O)(=O)N(C)C	4.8	15	-30	6	3	1	2413
CS(=O)(=O)N(CC(=O)N1CCCC1)c1ccc2c(c1)OCCO2	4.1	-22	-9	12	-5	2	21840*
O=C(O)C1[C@H]2C(=O)N(Cc3cccs3)C[C@]23C=C[C@H]1O3 (stereo partly specified)	1.2	2	-10	-2	3	-3	5918
CCOC(=O)c1sc(NC(=O)CCN2CCN(C)CC2)c(C(=O)OCC)c1C	5.6	13	-15	/	/	4	4575
CC(=O)Cc1nsc(NC(=O)c2ccc(COc3ccccc3Cl)o2)n1	/	-9	-20	/	/	/	3921
COC(=O)C1=C(C)N(CC2CC2)C(=NCc2cc(OC)c(OC)c(OC)c2)N[C@H]1c1ccccc1	/	-3	-3	/	/	/	4021
Cc1ccc2[nH]cc(CCNS(=O)(=O)c3ccc(F)cc3)c2c1	2.3	-1	-13	-3	18	-9	4227
CCCNC(=O)CCC(=O)Nc1ncc(-c2ccc(C)cc2)n1C	0.9	8	14	-1	-2	1	22139*
COCC(=O)Nc1cc(C(=O)NCC(C)C)ccc1Cl	2.5	-3	-15	1	11	6	2044
COc1cc(OC)cc(C(=O)NCCCCNC(=O)c2cc(OC)cc(OC)c2)c1	0.1	2	/	6	4	14	4377
O=C(NN=Cc1ccc(Br)cc1)c1ccccc1-n1cccc1	6.6	/	/	1	-3	-8	/
CCN1C(=O)/C(=C2/Sc3ccccc3N2CC)SC1=Nc1ncn[nH]1	-1.2	/	/	7	3	0	/
CCn1c(CC(=O)Nc2ccccc2C)nnc1SCC(=O)NC1CCCC1	2.7	4	-44	6	12	2	5826
Cc1cc(C)n2c(Nc3ccc4c(c3)OCCO4)c(-c3ccccc3)nc2n1	-1.1	6	-11	3	17	-8	3917
COc1ccc2c(c1OC)CN1CCc3cc4c(cc3C1C2)OCO4 (stereo unspecified)	9.6&4.3	-1	8	1&2	-4&-4	13&9	3235
CCn1c(=O)c(C(=O)NC(C)C)c(O)c2ccccc21	5.5	0	10	-8	11	5	9098
CCCCNC(=O)C(C#N)=c1sc(=Cc2ccccc2OC(F)F)c(=O)n1CCCOC	6.1	/	/	7	0	2	/
COc1ccc(Nc2ncc(C#N)c(N)n2)c(OC)c1	2.9	-6	-8	0	-5	5	3188
COc1ccccc1NC(=O)N[C@@H](Cc1c[nH]c2ccccc12)C(=O)NN	-1.5	1	-16	0	11	11	4054
COc1ccc(CC(C)N2CCN(Cc3ccccc3)CC2)cc1OC (stereo unspecified)	4.6	2	-16	10	3	7	4311
COc1ccc2cc(C(=O)c3ccccc3)c(=O)oc2c1	3.0	2	-64	3	3	-8	5618

Next part; the last 3 above are carried over.
SMILES	RN4220 kill	BJeLR viability	PrP UTR inh	Mtb hypoxia inh	Mtb hypoxia inh growth	Sa ugtP lethal	Autofluor counter
COc1ccccc1NC(=O)N[C@@H](Cc1c[nH]c2ccccc12)C(=O)NN	-1.5	1	-16	0	11	11	4054
COc1ccc(CC(C)N2CCN(Cc3ccccc3)CC2)cc1OC (stereo unspecified)	4.6	2	-16	10	3	7	4311
COc1ccc2cc(C(=O)c3ccccc3)c(=O)oc2c1	3.0	2	-64	3	3	-8	5618
OC(CNCCc1ccc(Cl)cc1)COCc1ccco1 (stereo unspecified)	1.7	-8	3	/	/	1	3694
Cc1cc(C(=O)OCC(=O)NCc2ccc(F)cc2)c2ccccc2n1	-2.3	/	-24	-10	-7	5	3912
CCCCn1c(N)c(N(CC)C(=O)c2cccc(S(=O)(=O)N3CCCc4ccccc43)c2)c(=O)[nH]c1=O	1.2	2	-8	5	10	2	5033
COc1ccc(C=NNC(=O)c2cccc(NC(=O)c3ccc(F)cc3)c2)c(C(=O)O)c1OC	0.6	/	/	-8	-4	-4	/
COc1ccccc1N1CCN(S(=O)(=O)CCNC(=O)c2ccc(Br)o2)CC1	-1.6	8	-21	-5	-2	2	4153
CCCc1cc(=O)oc2c3c(cc(OCC(=O)NCc4ccncc4)c12)OC(C)(C)CC3	1.1	8	-2	/	/	6	4436
COc1ccc(NC(=O)COC(=O)COc2cccc3c2OC(C)(C)C3)cc1	1.1	5	-16	-7	2	-3	?
Cc1cc(S(=O)(=O)N2CCCC(N(C)CCc3ccccn3)C2)c(C)s1 (stereo unspecified)	/	-1	-16	/	/	/	5836
Nc1ccc(S(=O)(=O)NC2(C(F)(F)F)NC(=O)N(c3ccc(F)cc3)C2=O)cc1 (stereo unspecified)	0.6	-2	-2	-11	1	4	5822
COC(=O)C1=C(c2ccc(S(C)(=O)=O)cc2)C[C@@H]2CC[C@H]1N2C(=O)NCc1ccc(C(F)(F)F)cc1	/	-1	-12	/	/	/	3491
Cn1c(=O)[nH]c(=O)c2c1ncn2CCCc1ccccc1	1.8	0	-7	/	/	2	2700
O=C(NCCc1c[nH]c2ccccc12)c1ccc2[nH]c(=O)c(=O)[nH]c2c1	1.4	1	8	10	5	-1	3559
CC(C)c1c(C(=O)N/N=C/c2c[nH]c3ccccc23)nnn1-c1nonc1N	/	-4	-21	/	/	/	5396
CCOc1cc(C(=S)N2CCCC2)ccc1OCc1ccccc1	8.1	-4	16	14	10	10	/
COc1ccc(C(CNC(=O)c2cccc(NS(=O)(=O)c3ccc(C)c(F)c3)c2)N2CCOCC2)cc1 (stereo unspecified)	-0.1	3	-12	-2	5	3	/
COc1cc(C=NNS(=O)(=O)c2ccc(C)c([N+](=O)[O-])c2)ccc1O	8.5	/	/	7	6	2	/
Cc1c(Cl)cccc1NC(=S)N(Cc1ccco1)C(C)c1ccccn1 (stereo unspecified)	5.0	18	-47	-6	-7	19	4061
Cc1nnc(SC(C)C(=O)Nc2ccc3ccccc3c2)n1C (stereo unspecified)	-0.4	/	1	-8	-4	0	3967
COc1ccc(NC(=S)N2N=CCC2c2ccccc2)cc1 (stereo unspecified)	0.1	1	-42	0	1	11	22420*
COCCNC(=O)[C@@]1(Cc2ccccc2)C=CC(C)N1C(C)=O (stereo partly specified)	6.0	/	/	21	8	5	/
COc1ccc(-c2csc(/C=C/c3ccc4c(c3)OCO4)n2)cc1OC	4.8	16	-22	10	6	1	1945
COc1ccc(CNC(=O)CCCN2C(=O)c3ccccc3C2=O)cc1	-1.2	-1	-10	2	-8	6	2023
OCCNc1ncnc2ccc(Br)cc12	-11	3	0	5	8	-4	3098
CC1C(=O)CC(c2ccccc2)N(C)C1c1ccccc1 (stereo unspecified)	4.5	-1	-15	23	21	15	4306
CCCN1CCC(NC(=O)Nc2ccc(Br)cc2)CC1	-0.3	-1	-10	14	6	-11	2677
CS(=O)(=O)Nc1ccc(S(=O)(=O)NCCc2ccccc2)cc1	-1.6	9	6	6	5	9	24049*
OCCC1CN(Cc2cccc(OC3CCCC3)c2)CCN1Cc1ccsc1 (stereo unspecified)	2.9	9	-5	4	0	14	4407
N#CN/C(=N\S(=O)(=O)c1ccccc1)c1ccccc1	2.1	-19	-19	8	17	-1	3907
COc1cc(CNC2CCCCC2OC)cc(OC)c1OC (stereo unspecified)	-0.3	-2	-3	11	-1	9	2570
Cc1c(NC(=O)C2CCCO2)cccc1[N+](=O)[O-] (stereo unspecified)	6.8	-15	-4	1	0	4	7727
Cc1ccc(C(=O)N/C(N)=N/c2nc3ccccc3o2)cc1	/	2	-40	/	/	/	2362
COc1ccc(CCNC(=O)c2cc(S(=O)(=O)N3CCC4(CC3)OCCO4)ccc2F)cc1OC	1.1	-4	-20	-4	12	2	4361
O=C(NCCS(=O)(=O)NCc1ccc(F)cc1)c1ccccc1	4.4	2	-16	9	12	11	?
COc1ccc(CCNC(=O)C2CCN(C(=O)c3cccs3)CC2)cc1	3.3	3	-24	1	0	1	4193
C=CCSc1nc(N)c(C(=O)Nc2ccccc2)cc1C#N	-2.0	-1	-14	5	12	-14	9114
COc1ccccc1N1CC(C(=O)NCCN2C(=O)S/C(=C\c3cccnc3)C2=O)CC1=O (stereo unspecified)	6.8	/	-28	6	8	4	3452
CCN1CC2C3C(=O)N(C)C(=O)C3[C@](CC)(C1=O)N2C(=O)c1ccc(C(C)(C)C)cc1 (stereo partly specified)	3.3	/	/	6	10	-2	/
